# Screening results as filed in PubChem.
# HSV replic up = increases HSV replication in cells; HSV replication augmentation in cells, fold increase; maximum fold increase; hit rate 0.005% among 220,000; AID 1956;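 active means peak rise of 1.5-fold or more in the series; inconclusive means self-fluorescent or not available for retest; tested in PC3 cells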;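 further: first round at 10 µM; read as green reporter fluorescence; hits show the peak of a series up to 25 µM; 1 = signal of infected wells without compound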
# Insulin prom inh = TRM-6 insulin promoter activity inhibition | TRM-6 cells (human fetal islet line), insulin promoter-eGFP reporter, imaging; reporter expression induced with tamoxifen | inhibition, % at 2 µM | hit rate 0.9% among 130,000;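 active means inhibition above the mean plus 3 SD, with well images judged a real hit on visual review, cut at about 60% in these data, passing the limit was not always enough; inconclusive means inhibition over the cutoff but images rejected on review; inactive means inhibition not above the cutoff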
# GALR2 agonist = activates the human galanin receptor 2; activation, %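 (tested at 5 µM)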; AID 803; hit rate 0.48% among 140,000; GALR2-expressing cells, agonist activation read-out; O43603;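 active means above mean plus 3 SD of all compounds, about 5% in these data, not always enough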;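 further: 0% = vehicle buffer wells and 100% = reference agonist at full effect; tested in CHO reporter cells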
# Target sequence (O43603 whole entry, looked up): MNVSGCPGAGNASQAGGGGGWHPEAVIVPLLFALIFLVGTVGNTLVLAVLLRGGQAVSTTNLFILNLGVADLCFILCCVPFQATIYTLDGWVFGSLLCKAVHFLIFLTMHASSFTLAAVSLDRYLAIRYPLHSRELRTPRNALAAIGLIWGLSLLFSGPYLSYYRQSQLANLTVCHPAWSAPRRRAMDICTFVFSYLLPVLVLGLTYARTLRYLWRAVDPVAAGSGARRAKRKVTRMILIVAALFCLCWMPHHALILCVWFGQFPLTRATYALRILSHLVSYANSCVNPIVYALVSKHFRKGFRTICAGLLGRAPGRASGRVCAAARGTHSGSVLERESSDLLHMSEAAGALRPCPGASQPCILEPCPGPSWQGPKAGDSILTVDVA
# PKD1 kinase inh = blocks activity of human protein kinase D1; PKD1 kinase fluorescence polarization assay; AID 797; hit rate 0.056% among 200,000; inhibition, %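 (about 10 µM by stock and volumes)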; Q15139;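 active means inhibition of 50% or more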;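 further: controls were vehicle for no effect and a reference inhibitor for full effect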
# RGS16-Gao = modulates binding between human RGS16 and Galphao; hit rate 0.38% among 220,000; O15492+P09471; binding response (% of control), % at 10 µM; AID 1441; bead-based flow cytometry RGS16-Galphao binding, fluorescence; actives lie on both sides;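 active means below 25% or above 175%, edge rows of some plates excepted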;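 further: Galphao activated by GDP with aluminum fluoride before binding; 100% = wells without compound and 0% = beads without RGS; some results beyond the cut were filed as inactive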
# Target sequence (O15492 whole entry, looked up): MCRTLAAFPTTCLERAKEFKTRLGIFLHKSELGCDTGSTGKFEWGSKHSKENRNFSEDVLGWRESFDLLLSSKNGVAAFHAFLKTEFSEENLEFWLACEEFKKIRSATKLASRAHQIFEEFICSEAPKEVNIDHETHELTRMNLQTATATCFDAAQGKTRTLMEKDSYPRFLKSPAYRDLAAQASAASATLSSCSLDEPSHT
# Target sequence (P09471 whole entry, looked up): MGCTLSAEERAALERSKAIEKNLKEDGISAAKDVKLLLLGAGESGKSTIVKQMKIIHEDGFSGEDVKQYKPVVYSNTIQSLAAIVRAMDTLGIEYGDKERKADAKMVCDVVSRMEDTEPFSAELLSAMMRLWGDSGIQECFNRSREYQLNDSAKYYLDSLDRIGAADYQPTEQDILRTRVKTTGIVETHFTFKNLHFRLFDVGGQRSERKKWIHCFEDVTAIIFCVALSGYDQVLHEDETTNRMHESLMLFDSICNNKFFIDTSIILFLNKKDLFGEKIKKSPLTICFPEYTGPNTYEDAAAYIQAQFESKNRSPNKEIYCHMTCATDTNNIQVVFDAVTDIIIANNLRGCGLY
# Insulin prom inh cell count = recorded beside Insulin prom inh, whose call it bears; normalized cell count, %; measured here: cell count, toxicity; reference of the scale not given here;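 cells exposed to compound for 48 h; stained nuclei by imaging scaled within each plate; lower means fewer cells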
# HSV replic up primary fold = second read-out of HSV replic up, no call of its own (marks repeat the call); fold increase; compound at 10 µM; measured here: primary screen fold increase 10 uM; tested in PC3 cells;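 GFP signal in the first replicate; 1 = infected wells without compound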
# Active calls of the source: *; i = inactive; ? = inconclusive; / = not tested or not shown; [ ] = another dose, or the depositor's remark.
# Screens by letter: A = HSV replic up; B = HSV replic up primary fold; C = Insulin prom inh; D = Insulin prom inh cell count; E = GALR2 agonist; F = PKD1 kinase inh; G = RGS16-Gao
CCN(CC)S(=O)(=O)c1c(OC)cc(C)c(Cl)c1C
  A = i	B = 1	C = /	D = /	E = /	F = -4	G = 88

Cc1ccc(C)c(N2CCN(C(=O)c3csc4ccccc34)CC2)c1
  A = i	B = 0.93	C = /	D = /	E = -1.3	F = 0	G = 103

Cc1ccc(S(=O)(=O)CCC(=O)Nc2cccc([N+](=O)[O-])c2)cc1
  A = i	B = 0.95	C = 36	D = 108	E = /	F = -1	G = 101

O=C1c2ccccc2C(=O)N1Cc1cc(-c2ccccc2Cl)no1
  A = i	B = 0.99	C = 6	D = 112	E = -1.4	F = 8	G = 97

Cc1ccc(NC2=NC(c3ccc(F)cc3)n3c(nc(C)cc3=O)N2)cc1 (centres undefined)
  A = i	B = 1.1	C = /	D = /	E = /	F = /	G = 100

O=C(CSc1ncnc2c1cnn2-c1ccccc1)Nc1ccc2c(c1)OCO2
  A = /	B = /	C = -100	D = 63	E = -1.9	F = -8	G = 99

C/C(CC(=O)Nc1cccc2c1CCCC2)=N\NC(=O)c1cccc2ccccc12
  A = i	B = 0.84	C = 28	D = 69	E = 0.1	F = -6	G = 24

Cc1ccc(Cn2c(O)c(N=O)c3ccccc32)cc1
  A = i	B = 0.92	C = 41	D = 103	E = /	F = 10	G = 99

O=C(NC1CCCC1)C1CCN(c2nccs2)CC1
  A = i	B = 0.98	C = -39	D = 20	E = -0.9	F = 0	G = 100

CCCCn1c(=O)c(CCC(=O)OCC(=O)NCc2ccc(OC)c(OC)c2)nc2ccccc21
  A = i	B = 0.92	C = /	D = /	E = /	F = -6	G = 112

Cc1[nH]c2ccccc2c1C(=O)COc1ccccc1F
  A = i	B = 0.93	C = 9	D = 88	E = /	F = 3	G = 101

CCOC(=O)Cc1csc(NC(=O)/C=C/c2ccc(Cl)cc2)n1
  A = i	B = 0.98	C = /	D = /	E = /	F = /	G = 100

COc1cc(C(C#N)N2CCOCC2)ccc1O (centres undefined)
  A = i	B = 0.89	C = /	D = /	E = -1.2	F = 8	G = 101

Cc1cc(NC(=O)CN2CCCCC2)no1
  A = i	B = 0.92	C = 13	D = 101	E = /	F = -3	G = 98

CC1CCN(C(=O)CN(c2ccc(Oc3ccccc3)cc2)S(C)(=O)=O)CC1
  A = i	B = 0.93	C = 42	D = 81	E = 0.6	F = -3	G = 104

CCOC(=O)c1cc(NC(=O)NCc2ccco2)c(C)nc1C
  A = i	B = 0.97	C = /	D = /	E = 0.1	F = 9	G = 98

O=C(NC1CC2CCC1C2)c1ccc(CN2CCOCC2)cc1 (centres undefined)
  A = i	B = 1.1	C = -44	D = 117	E = -0.4	F = -1	G = 109

COc1ccc(-c2cc(C)nc3nc(N)nn23)cc1
  A = i	B = 1.1	C = -71	D = 79	E = -3.3	F = -11	G = 98

Nc1nc(Nc2ccccc2)nc(N2CCOCC2)c1[N+](=O)[O-]
  A = i	B = 0.83	C = /	D = /	E = -1.0	F = 2	G = 96

CCOc1ccc(Nc2n[nH]c(=S)s2)cc1
  A = i	B = 0.93	C = /	D = /	E = -0.5	F = 4	G = 100

COC(=O)c1cc(NS(=O)(=O)c2ccc(NCc3cccnc3)c(N)c2)cc(C(=O)OC)c1
  A = i	B = 1.1	C = 56	D = 73	E = -0.5	F = -1	G = 63

COc1ccc2cc3cc(C(=O)Nc4ccccc4N4CCN(C)CC4)oc3nc2c1
  A = ?	B = /	C = -3	D = 114	E = 2.0	F = 20	G = 99

CCN(CC)CCNC(=O)C1c2cc(OC)c(OC)cc2C(=O)N2CCc3ccccc3C12 (centres undefined)
  A = /	B = /	C = 31	D = 75	E = -4.6	F = -8	G = 96

CC(=C/c1ccco1)/C=N/N1CCN(c2ccccc2)CC1
  A = i	B = 0.92	C = 22	D = 94	E = 0.0	F = -10	G = 94

COc1cc2c(cc1N/C=C(\C#N)c1nc(-c3ccc(F)cc3)cs1)oc1ccccc12
  A = i	B = 1.1	C = /	D = /	E = /	F = /	G = 99

Cc1cccc(OCC(=O)Nc2ccc3c(c2)OCO3)c1C
  A = i	B = 0.9	C = /	D = /	E = -0.5	F = 0	G = 96

COc1cccc(C(c2nnnn2CCc2ccccc2)N2CCN(c3ccccc3)CC2)c1OC (centres undefined)
  A = i	B = 0.97	C = -8	D = 184	E = -0.4	F = 7	G = 100

COc1ccccc1-c1nnc(SCC(=O)Nc2c(Cl)cccc2Cl)o1
  A = i	B = 0.93	C = 7	D = 127	E = -1.5	F = -7	G = 99

C=C(C)CNC(=S)NNC(=O)c1ccco1
  A = i	B = 0.7	C = 56	D = 147	E = -3.9	F = -2	G = 102

CC1=C(C(=O)OC(C)C)C(c2ccc(Br)s2)NC(=O)N1 (centres undefined)
  A = i	B = 0.83	C = -52	D = 109	E = -1.1	F = -7	G = 105

# Another view of 9 compounds above:
compound,HSV replic up,HSV replic up primary fold,Insulin prom inh,Insulin prom inh cell count,GALR2 agonist,PKD1 kinase inh,RGS16-Gao
COc1ccc2cc3cc(C(=O)Nc4ccccc4N4CCN(C)CC4)oc3nc2c1,?,/,-3,114,2.0,20,99
CCN(CC)CCNC(=O)C1c2cc(OC)c(OC)cc2C(=O)N2CCc3ccccc3C12 (centres undefined),/,/,31,75,-4.6,-8,96
CC(=C/c1ccco1)/C=N/N1CCN(c2ccccc2)CC1,i,0.92,22,94,0.0,-10,94
COc1cc2c(cc1N/C=C(\C#N)c1nc(-c3ccc(F)cc3)cs1)oc1ccccc12,i,1.1,/,/,/,/,99
Cc1cccc(OCC(=O)Nc2ccc3c(c2)OCO3)c1C,i,0.9,/,/,-0.5,0,96
COc1cccc(C(c2nnnn2CCc2ccccc2)N2CCN(c3ccccc3)CC2)c1OC (centres undefined),i,0.97,-8,184,-0.4,7,100
COc1ccccc1-c1nnc(SCC(=O)Nc2c(Cl)cccc2Cl)o1,i,0.93,7,127,-1.5,-7,99
C=C(C)CNC(=S)NNC(=O)c1ccco1,i,0.7,56,147,-3.9,-2,102
CC1=C(C(=O)OC(C)C)C(c2ccc(Br)s2)NC(=O)N1 (centres undefined),i,0.83,-52,109,-1.1,-7,105

# (list continues)
# Screens by letter: A = HSV replic up; B = HSV replic up primary fold; C = Insulin prom inh; D = Insulin prom inh cell count; E = GALR2 agonist; F = PKD1 kinase inh; G = RGS16-Gao
NC(=O)COC(=O)c1cc(Cl)cc(Cl)c1N
  A = i	B = 1.1	C = -6	D = 124	E = /	F = -2	G = 97

Cc1cccc(Nc2nc(N)nc(CN3CCC(C(N)=O)CC3)n2)c1C
  A = i	B = 0.98	C = 12	D = 105	E = -2.7	F = 5	G = 101

O=C(NCCCn1ccnc1)/C(=C\c1cccs1)NC(=O)c1cccs1
  A = i	B = 0.92	C = 42	D = 101	E = /	F = -9	G = 101

c1ccc(COn2nnc3ccccc32)c(COn2nnc3ccccc32)c1
  A = i	B = 0.92	C = 6	D = 91	E = 0.6	F = -8	G = 105

N#CCCN(CCC#N)S(=O)(=O)c1ccc(C(=O)Nc2nnc(C3=COCCO3)o2)cc1
  A = i	B = 0.92	C = 43	D = 165	E = /	F = 3	G = 116

c1ccc2[nH]c(CSc3nccs3)nc2c1
  A = i	B = 0.69	C = /	D = /	E = -2.0	F = -6	G = 191

COc1ccc(Nc2cc(C(=O)NCCCN3CCN(C)CC3)c3ccccc3n2)cc1
  A = i	B = 0.9	C = 40	D = 85	E = -2.3	F = 20	G = 105

COC(=O)c1oc2ccccc2c1NC(=O)CN1CCCC1
  A = i	B = 0.93	C = /	D = /	E = 0.0	F = -8	G = 104

N#CC1(c2ccccc2)CCCN1C(=O)c1ccc(Br)cc1 (centres undefined)
  A = i	B = 1.1	C = -40	D = 125	E = -2.2	F = -4	G = 99

Cc1ccc(S(=O)(=O)N2Cc3ccccc3CC2C(=O)Nn2cnnc2)cc1 (centres undefined)
  A = i	B = 0.87	C = /	D = /	E = -0.6	F = -12	G = 107

Cc1cnc(NC(=O)CSc2nnc(-c3ccccc3)o2)s1
  A = i	B = 0.89	C = 53	D = 52	E = -0.1	F = 7	G = 103

CC(C)(C)NC(=O)C(=O)NNC(=O)c1cccc(F)c1
  A = i	B = 0.96	C = /	D = /	E = /	F = 1	G = 104

O=C(Nc1ccc(F)cc1)N1CCCN(c2nccc(C(F)(F)F)n2)CC1
  A = i	B = 0.9	C = /	D = /	E = /	F = /	G = 95

COc1ccc(C=O)cc1CSc1nnc(COc2cccc3cccnc23)o1
  A = i	B = 1	C = -289	D = 133	E = -0.8	F = 7	G = 88

O=C1C=C(Nc2ccc(Cl)cc2)CC(c2ccco2)C1 (centres undefined)
  A = i	B = 1	C = -383	D = 60	E = -2.1	F = -5	G = 101

O=C(NCC1OCCc2ccccc21)c1ccc(NC(=O)c2ccc(Cl)cc2Cl)cc1 (centres undefined)
  A = i	B = 0.72	C = /	D = /	E = -1.4	F = -11	G = 445*[activator]

Cc1cc(Nc2ccccc2)nc(N2CCOCC2)n1
  A = i	B = 1	C = 19	D = 128	E = -0.9	F = -1	G = 100

O=[N+]([O-])c1cccc(/C=C/c2ccncc2)c1
  A = i	B = 0.98	C = /	D = /	E = /	F = /	G = 100

CCOP(=O)(OCC)C(NC(=O)/C=C/c1ccc(OC)cc1)c1ccccc1 (centres undefined)
  A = i	B = 0.93	C = /	D = /	E = /	F = -5	G = 100

COc1ccc(S(=O)(=O)Nc2cccc(F)c2)cc1C
  A = i	B = 0.98	C = -39	D = 31	E = /	F = -5	G = 104

Cc1cc(C(=O)COC(=O)C2=NNC(=O)CC2)c(C)n1-c1cccc(C(F)(F)F)c1
  A = i	B = 0.91	C = 38	D = 98	E = -1.3	F = -2	G = 102

CC(C)COc1ccc(/C(=N/O)c2ccccc2)cc1
  A = i	B = 1.1	C = 40	D = 65	E = -0.7	F = -3	G = 104

O=C(COC(=O)c1cc(-c2ccccn2)nc2ccccc12)Nc1ncc(C(F)(F)F)cc1Cl
  A = i	B = 0.94	C = /	D = /	E = /	F = /	G = 99

COc1ccc2c(c1)[nH]c1c(=O)n(CCN3CCOCC3)cnc12
  A = i	B = 0.93	C = /	D = /	E = /	F = /	G = 101

N#C/C(=C(/O)c1ccco1)c1nc2ccccc2[nH]1
  A = i	B = 1.4	C = -14	D = 123	E = /	F = -5	G = 93

Cc1cc(NC(=O)Cn2nnc(-c3ccccc3N)n2)no1
  A = i	B = 1	C = /	D = /	E = 0.1	F = 1	G = 100

Cn1c(C(=O)NCc2ccccn2)cc2c(=O)n3ccccc3nc21
  A = i	B = 0.87	C = -148	D = 101	E = -0.1	F = -2	G = 101

C=CCn1c(-c2csc(-c3ccccc3)n2)n[nH]c1=S
  A = i	B = 0.91	C = /	D = /	E = -1.9	F = 7	G = 70

Cc1ccc(C=Nc2ccccc2C(=O)Nc2ccccc2)cc1
  A = i	B = 1	C = 13	D = 80	E = 0.0	F = -16	G = 110

COc1ccc(/C=C(\C#N)C(=O)OCC(=O)NC(C)c2ccccc2)cc1 (centres undefined)
  A = i	B = 1.1	C = 0	D = 89	E = 0.2	F = 2	G = 58

Cc1cc(C)n2nc(C(=O)NCc3cccc(C(F)(F)F)c3)nc2n1
  A = i	B = 0.91	C = -51	D = 159	E = /	F = -2	G = 106

O=C(/C=C/c1ccc(Cl)cc1)Nc1ccccc1N1CCOCC1
  A = i	B = 0.66	C = -39	D = 85	E = -0.8	F = -7	G = 83

COC(=O)c1sccc1NC(=O)CNC(=O)c1ccccc1
  A = i	B = 0.99	C = -74	D = 95	E = /	F = -3	G = 109

Cc1ccc(/C=C/c2nc3ccccc3c(=O)[nH]2)cc1
  A = i	B = 1.1	C = /	D = /	E = /	F = /	G = 98

COc1ccccc1NC(=O)CS(=O)(=O)c1cccc2nsnc12
  A = i	B = 0.81	C = 50	D = 119	E = -2.1	F = -5	G = 99

Clc1ccc(Oc2nc3ccccc3n3cccc23)cc1
  A = i	B = 1	C = 18	D = 79	E = -1.2	F = -11	G = 107

COc1ccc(-c2ccc(/C=C(\NC(=O)c3ccccc3)C(=O)N3CCOCC3)o2)cc1
  A = i	B = 0.96	C = /	D = /	E = /	F = 4	G = 102

COCCN1C(=O)c2cc(C(=O)Nc3ccc(OC)c(OC)c3)ccc2C1Nc1ccc(OC)c(OC)c1 (centres undefined)
  A = i	B = 0.94	C = 24	D = 106	E = /	F = 1	G = 98

CCn1c(NC(C)=O)nc2ccccc21
  A = i	B = 0.92	C = -325	D = 71	E = -0.9	F = -3	G = 100

CC(NC(=O)c1ccccc1)c1nnc(SCc2nc3ccccc3c(=O)[nH]2)n1C (centres undefined)
  A = i	B = 0.76	C = 36	D = 147	E = /	F = -9	G = 102

Cc1cc(/C=N\NC(=O)COc2cccc3cccnc23)c(C)n1-c1ccccc1
  A = i	B = 0.8	C = -17	D = 95	E = 0.2	F = -3	G = 111
